# Screening data from PubChem BioAssay.
# UCH37 inh – human UCH37 deubiquitinating enzyme inhibition; Q9Y5K5; purified proteasome/UCH37, Ub-AMC cleavage fluorescence; inhibition, % (no concentration beside the values); 0.33% of 330,000 active; AID 588478;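 active means mean of two replicates above 20%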;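 further: 0% = compound-free wells with enzyme and 100% = wells lacking proteasome; stock transfer was 100 nL into about 20 µL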
# Target sequence (Q9Y5K5 whole entry, looked up): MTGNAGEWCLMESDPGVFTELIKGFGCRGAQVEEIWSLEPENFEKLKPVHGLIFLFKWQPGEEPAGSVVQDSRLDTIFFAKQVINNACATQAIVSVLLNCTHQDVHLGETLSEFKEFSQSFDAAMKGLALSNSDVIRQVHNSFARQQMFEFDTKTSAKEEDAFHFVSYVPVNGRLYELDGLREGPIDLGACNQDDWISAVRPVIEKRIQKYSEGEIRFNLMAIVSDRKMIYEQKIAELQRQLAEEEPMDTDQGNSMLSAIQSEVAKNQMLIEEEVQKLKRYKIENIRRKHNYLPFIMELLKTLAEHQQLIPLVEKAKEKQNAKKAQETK
#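 Reagent: Ub-AMC substrate; assay system: Proteasome-associated human UCH37 deubiquitinase; controls: no-proteasome and no-compound wells; read-out: % inhibition of Ub-AMC cleavage fluorescence; timing: 30 min preincubation with enzyme, 25 min cleavage at room temperature; signal: AMC fluorescence from Ub-AMC cleavage, excitation 355 nm, emission 460 nm; buffer or medium: Tris-HCl pH 7.4 plus ovalbumin, ATP-MgCl2, DTT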
# RanGTP-Imp inh – disruptors of Ran-importin-beta complex formation – biochemical, FRET, CFP-Ran, YFP-importin-beta, homogeneous, primary screen | AID 2216 | cell-free CFP-Ran/YFP-importin-beta FRET ratio | inhibition, % (concentration not given with the values) | 1.1% of 300,000 active;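 active means most replicates above 15%; inconclusive means exactly half above 15%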;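 further: 0% = DMSO wells and 100% = Ran loaded with GDP instead of GTP; wells of about 40 µL received 100 nL stock; the first replicate is given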
# * hit, by the source's call; ? = inconclusive; . = no result given; & = joins results of further samples. These rows are one share of the data; rates above refer to the full screens.
# Start of the data: the first 2 compounds, to show the layout:
UCH37 inh	RanGTP-Imp inh	canonical_smiles
.	4.5	COC(=O)N1C(=O)[C@@](CC(C)C)(c2ccccc2)N1C(=O)OC
.	18.0*	Cc1cc(C)c(C2=CC(c3ccccc3)n3ncnc3N2)cc1C (configuration not stated)

# Main list, repeating the preview:
UCH37 inh	RanGTP-Imp inh	canonical_smiles
.	4.5	COC(=O)N1C(=O)[C@@](CC(C)C)(c2ccccc2)N1C(=O)OC
.	18.0*	Cc1cc(C)c(C2=CC(c3ccccc3)n3ncnc3N2)cc1C (configuration not stated)
.	-0.7	COc1cc([C@@H]2c3cc4c(cc3[C@@H](NC3CCN(Cc5ccccc5)CC3)[C@H]3COC(=O)[C@H]23)OCO4)cc(OC)c1O
.	-2.5	CC1(OC(=O)c2ccco2)C(=O)C=C2C=C(c3ccc(C#N)cc3)OC=C2C1=O (configuration not stated)
.	-20.3	Oc1c(Cl)cc(Cl)cc1C=Nc1ccccc1N1CCCC1
.	-13.7	COC(=O)CCCC1=CC2=CC(=O)C(C)(OC(=O)c3ccco3)C(=O)C2=CO1 (configuration not stated)
.	?	COC(C/C=C\C(=O)[C@@H](C)OCc1ccccc1)OC
.	-2.4	S=C(Sc1ccc(Cl)cc1)Sc1ccc(Cl)cc1

# Other compounds follow:
UCH37 inh	RanGTP-Imp inh	canonical_smiles
.	-2.7	O=C1N[C@@H](Cc2cn(S(=O)(=O)c3ccc(F)cc3)c3ccccc23)C(=O)N[C@H]1Cc1ccccc1
.	1.9	C/C(CCN1CCc2nc(-c3ccccc3)c(-c3ccccc3)cc2C1)=N\OC[C@@H](C)[C@H](OCc1ccccc1)C(C)C
.	9.1	C#CCOCCOCCOCCNc1nc(N2CCN(C(=O)[C@H](Cc3ccc(O)cc3)n3cc([C@@H](N)CC(C)C)nn3)CC2)nc(N2CCN(C(=O)[C@H](Cc3ccc(O)cc3)n3cc([C@@H](N)CC(C)C)nn3)CC2)n1
.	-1.1	O=C(Nc1nc2ccc(SC(F)F)cc2s1)c1ccc2c(c1)S(=O)(=O)c1ccccc1C2=O
.	3.7	CCN(CC)CCCNc1nc(SC)nc2sc3c(c12)CCN(C)C3
.	4.8	O=S(=O)(c1ccccc1)N1N=C(c2ccccc2)CC1c1ccco1 (configuration not stated)
.	2.2	CCOc1cc(/C=C/c2nc3ccccc3c(=O)[nH]2)cc(Br)c1OC
.	-3.4	CSc1nc(C)cc(-c2cc(C(=O)Nc3ccccc3)on2)n1

# (next part)
UCH37 inh	RanGTP-Imp inh	canonical_smiles
.	-1.7	COC/C=C/C1=CC2=CC(=O)C(C)(OC(=O)c3cnc4ccccc4n3)C(=O)C2=CN1CCc1ccccn1 (configuration not stated)
.	2.0	Cn1c(=O)c2[nH]c(N/N=C(/C#N)C(N)=O)nc2n(C)c1=O
.	2.4	O=S(=O)(O)Oc1c[nH]c2ccccc12
.	-2.5	O=S(=O)(Nc1ccc(O)c2ccccc12)c1ccc(Br)cc1
.	1.8	O=C(/C=C/c1ccc2c(c1)OCO2)Nc1nc(-c2ccc(F)cc2)cs1
.	-2.2	O=C1CCCC(=O)N1c1ccc(N2CCN(c3ccc([N+](=O)[O-])cc3)CC2)c([N+](=O)[O-])c1
.	-2.6	Nc1ccc(O)c(C(=O)O)c1
.	37.0*	O=Cc1coc2c(ccc3ccccc32)c1=O

# An excerpt of these results, with bars between the fields.
mol | UCH37 inh | RanGTP-Imp inh
COc1cc([C@@H]2c3cc4c(cc3[C@@H](NC3CCN(Cc5ccccc5)CC3)[C@H]3COC(=O)[C@H]23)OCO4)cc(OC)c1O | . | -0.7
CC1(OC(=O)c2ccco2)C(=O)C=C2C=C(c3ccc(C#N)cc3)OC=C2C1=O (configuration not stated) | . | -2.5
Oc1c(Cl)cc(Cl)cc1C=Nc1ccccc1N1CCCC1 | . | -20.3
COC(=O)CCCC1=CC2=CC(=O)C(C)(OC(=O)c3ccco3)C(=O)C2=CO1 (configuration not stated) | . | -13.7
COC(C/C=C\C(=O)[C@@H](C)OCc1ccccc1)OC | . | ?
S=C(Sc1ccc(Cl)cc1)Sc1ccc(Cl)cc1 | . | -2.4
O=C1N[C@@H](Cc2cn(S(=O)(=O)c3ccc(F)cc3)c3ccccc23)C(=O)N[C@H]1Cc1ccccc1 | . | -2.7
C/C(CCN1CCc2nc(-c3ccccc3)c(-c3ccccc3)cc2C1)=N\OC[C@@H](C)[C@H](OCc1ccccc1)C(C)C | . | 1.9
C#CCOCCOCCOCCNc1nc(N2CCN(C(=O)[C@H](Cc3ccc(O)cc3)n3cc([C@@H](N)CC(C)C)nn3)CC2)nc(N2CCN(C(=O)[C@H](Cc3ccc(O)cc3)n3cc([C@@H](N)CC(C)C)nn3)CC2)n1 | . | 9.1
O=C(Nc1nc2ccc(SC(F)F)cc2s1)c1ccc2c(c1)S(=O)(=O)c1ccccc1C2=O | . | -1.1
CCN(CC)CCCNc1nc(SC)nc2sc3c(c12)CCN(C)C3 | . | 3.7
O=S(=O)(c1ccccc1)N1N=C(c2ccccc2)CC1c1ccco1 (configuration not stated) | . | 4.8
CCOc1cc(/C=C/c2nc3ccccc3c(=O)[nH]2)cc(Br)c1OC | . | 2.2
CSc1nc(C)cc(-c2cc(C(=O)Nc3ccccc3)on2)n1 | . | -3.4
COC/C=C/C1=CC2=CC(=O)C(C)(OC(=O)c3cnc4ccccc4n3)C(=O)C2=CN1CCc1ccccn1 (configuration not stated) | . | -1.7
Cn1c(=O)c2[nH]c(N/N=C(/C#N)C(N)=O)nc2n(C)c1=O | . | 2.0
O=S(=O)(O)Oc1c[nH]c2ccccc12 | . | 2.4
O=S(=O)(Nc1ccc(O)c2ccccc12)c1ccc(Br)cc1 | . | -2.5
O=C(/C=C/c1ccc2c(c1)OCO2)Nc1nc(-c2ccc(F)cc2)cs1 | . | 1.8
O=C1CCCC(=O)N1c1ccc(N2CCN(c3ccc([N+](=O)[O-])cc3)CC2)c([N+](=O)[O-])c1 | . | -2.2
Nc1ccc(O)c(C(=O)O)c1 | . | -2.6

# Later entries
UCH37 inh	RanGTP-Imp inh	canonical_smiles
.	2.5	C/C=C/C(O)c1ccc2ccccc2c1 (configuration not stated)
.	6.8	Cc1cccc(NC(=O)Cn2c([N+](=O)[O-])cnc2C)c1C
.	-3.4	COC/C=C/C1=CC2=CC(=O)C(C)(OC(=O)c3cccs3)C(=O)C2=CO1 (configuration not stated)
.	2.2	C[C@@H]1O[C@@H](OC2C(O)C(OCCc3ccc(O)c(O)c3)OC(CO)C2OC(=O)/C=C/c2ccc(O)c(O)c2)[C@H](O)[C@H](O)[C@H]1O (some centres not stated)
.	6.2	CCS(=O)(=O)C1=NN2C(=N)/C(=C\c3ccc(OS(=O)(=O)c4ccccc4)c(OC)c3)C(=O)N=C2S1
.	0.0	CCOc1ccc(-c2cc(C(=O)NN3CCN(C)CC3)c3cc(Cl)ccc3n2)cc1
.	-0.3	O=C(OCc1cc(Cl)ccc1OC(F)F)c1ccc([N+](=O)[O-])o1
.	-1.2	O=C(NN1C(=O)/C(=C/c2cc([N+](=O)[O-])ccc2O)SC1=S)c1ccccc1O

# Remaining list, next part.
UCH37 inh	RanGTP-Imp inh	canonical_smiles
.	3.2	COc1cccc2cc(C(N)=O)/c(=N/NC(=O)COc3ccc(Cl)cc3)oc12
.	23.6*	C=CCn1c2ccccc2c(=O)c2cc(C#Cc3ccsc3)ccc21
.	-3.5	O=C(COC(=O)c1cccc([N+](=O)[O-])c1)c1ccc2c(c1)OCO2
.	?	COc1ccc(CN2C(=O)C(Cc3ccccc3)Nc3ncnc(N4CCc5ccccc5C4)c32)cc1 (configuration not stated)
.	0.2	OC1OC[C@@H](O)[C@H](O)[C@H]1O (some centres not stated)
.	2.4	CCOC(=O)C1CCN(Cc2ccccn2)CC1
.	?	Cc1nc(C(=O)NC2CCCCC2)sc1C1(C)CC(c2cccnc2)=NO1 (configuration not stated)
.	0.7	CC(=O)N[C@@H](C)c1nc2ccccc2n1CCNC(=O)[C@H]1CCCN1c1nc(CN2CCCCC2)cs1

# The list continues:
UCH37 inh	RanGTP-Imp inh	canonical_smiles
.	0.6	CC(C)c1cc(-c2cc(C(=O)Nc3ccccc3)on2)nc(NCC2CC2)n1
.	2.6	CCN1C(=NCc2cc(OC)c(OC)c(OC)c2)N[C@@H](c2ccccc2)[C@H](C(=O)OC)[C@H]1C
.	-6.3	COc1ccc(CNS(=O)(=O)c2ccccc2Br)cc1
.	3.0	O=C(NCc1ccccc1Cl)C1CCCN(c2nc3ccsc3c(=O)s2)C1 (configuration not stated)
.	8.0	CCc1ccc2nc(N3C(=O)c4oc5ccccc5c(=O)c4C3c3ccc(OC)c(OC)c3)sc2c1 (configuration not stated)
.	2.9	CCN1CCN(Cc2c(C(=O)N/N=C(\C)c3ccc(Cl)c(Cl)c3)nnn2-c2nonc2N)CC1
.	6.2	COc1ccc(C[C@H]2CN3C(=NC[C@@H]3Cc3ccccc3)N2C[C@H](C)NC(=O)CCC2CCCCC2)cc1
.	-1.5	Cc1ccc(-c2ccc(/C=N/NC(=O)c3ccccc3O)o2)cc1

# (further entries)
UCH37 inh	RanGTP-Imp inh	canonical_smiles
.	-0.6	O=C(COC(=O)/C=C/c1cccc(Cl)c1)Nc1ccccc1-c1ccccc1
.	-3.6	O=S(=O)(c1ccc(F)cc1)N1CCCc2ccccc21
.	-2.2	O=C1C([N+](=O)[O-])=C(O)c2cccc3cccc1c23
.	-0.5	O=C(CN1C(=O)COc2ccc(S(=O)(=O)N3CCCC3)cc21)NC1CCCCCCC1
.	-0.5	O=[N+]([O-])c1ccc(C23CC4CC(CC(O)(C4)C2)C3)cc1
.	-17.5	CC1(OC(=O)c2ccc(Cl)nc2)C(=O)C=C2C=C(C3CC3)OC=C2C1=O (configuration not stated)
.	3.6	O=C1C(Cc2ccccc2)Nc2ncnc(N3CCc4ccccc4C3)c2N1Cc1ccc(Br)cc1 (configuration not stated)
.	1.4	Cc1ccc[n+](CC(=O)c2ccccc2)c1

# (next part)
UCH37 inh	RanGTP-Imp inh	canonical_smiles
.	-11.3	CC1(OC(=O)c2ccc(Cl)nc2)C(=O)C=C2C=C(c3ccsc3)OC=C2C1=O (configuration not stated)
.	2.8	COc1cc(/C=C2\C(=N)N3N=C(S(C)(=O)=O)SC3=NC2=O)ccc1OS(=O)(=O)c1ccccc1
.	-17.5	COC(=O)CCCC1=CC2=CC(=O)C(C)(OC(=O)c3cnc4ccccc4n3)C(=O)C2=CO1 (configuration not stated)
.	1.0	O=C(/C=C/c1ccccc1[N+](=O)[O-])Oc1ccccc1
.	?	CC(COc1ccccc1Cc1ccccc1)N1CCCCC1 (configuration not stated)
.	-0.2	COc1ccc(CCNC(=O)CSc2nnc(-c3ccco3)c(-c3ccco3)n2)cc1OC
.	-2.9	C[C@@H](O)[C@H]1C(=O)N2C(C(=O)O)=C(S[C@@H]3CN[C@H](C(=O)N(C)C)C3)[C@H](C)[C@H]12
.	-6.0	O=C(c1ccc(F)cc1)[C@@H]1[C@@H](C(=O)c2ccccc2)[C@@]2(C(=O)Nc3ccccc32)[C@H]2c3ccccc3C=CN12

# Going on with the list.
UCH37 inh	RanGTP-Imp inh	canonical_smiles
5.3	.	CN(N=Cc1ccc([N+](=O)[O-])o1)c1ccccc1
-1.2	.	CCCCS/C(N)=N/N=Cc1cc(C)ccc1O
4.8	.	COc1ccc(C(C)=NNc2ccc(C(=O)O)cc2)c(OC)c1
0.2	.	CCCCNC(=O)CON=C(C)c1cc2ccccc2o1
5.2	.	C(=NNC1=Nc2cccc3cccc1c23)c1ccccc1
-0.7	.	COc1ccccc1/C=C/C(=O)NCC(=O)NN=Cc1ccc2c(c1)OCO2
0.4	.	Cc1ccccc1C=NNC(=O)c1sccc1C
0.2	.	O=C(NN=Cc1cc2c3c(c1O)CCCN3CCC2)c1ccccc1O

# Following part.
UCH37 inh	RanGTP-Imp inh	canonical_smiles
6.0&2.3	.	CON=C(C(=O)N[C@@H]1C(=O)N2C(C(=O)O)=C(COC(C)=O)CS[C@H]12)c1csc(N)n1
4.0	.	O=C(NN=Cc1cccc([N+](=O)[O-])c1)C1CC1c1ccccc1 (configuration not stated)
5.4	.	Cc1n[nH]c(=S)n1N=Cc1ccccc1
5.0	.	O=C(CNC(=O)c1cccc(F)c1)NN=Cc1cccc([N+](=O)[O-])c1
1.2	.	COc1ccc(O[C@H]2C=C[C@@H](c3ccccc3)O[C@@H]2COC(=O)CCC(C)=NO[C@H](C)c2cn([C@@H]3COC[C@H]3O)nn2)cc1
-14.2	.	CC1Oc2ccccc2C=C1C=NNC(=O)c1ccccc1 (configuration not stated)
3.0	.	Fc1ccc(C=NNC2=Nc3cccc4cccc2c34)cc1
6.0	.	Cc1cccc(C)c1N(CC(=O)NN=Cc1cc(Br)c(C)o1)S(C)(=O)=O

# Further records.
UCH37 inh	RanGTP-Imp inh	canonical_smiles
0.8	.	CON=CNC(=O)N1OC[C@@H]2COc3ccc4ccccc4c3[C@@H]21
4.1	.	Cc1cccc(OCC(=O)NN=Cc2cc([N+](=O)[O-])ccc2N2CCOCC2)c1
1.3	.	COc1cc(C=NNC(N)=O)ccc1OCC(=O)Nc1ccc(C)c(C)c1
4.9	.	O=C(NN=C(c1ccccc1)c1ccncc1)c1ccc2c(c1)OCO2
4.4	.	O=C(CC1S/C(=N/N=Cc2ccco2)NC1=O)Nc1cccc(Cl)c1Cl (configuration not stated)
2.1	.	CCN(CC)c1ccc(C=NN2CCOCC2)c(O)c1
